Menin-MLL FL inh – displaces fluorescein MLL peptide from human menin; FP activity change, % at 61.4 µM; Fluorescence polarization, fluorescein-MLL peptide displacement from menin; 290,000 tested, under 10 active; AID 1766; inconclusive = falling polarisation curve, or a change in total fluorescence; inactive = total fluorescence flat and polarisation flat or rising; no compound was filed as active; the % refers to the polarisation; negative = inhibition;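 note: % of control where 0% means no effect; inhibitors lower the polarisation; unlabelled MLL peptide was the positive control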
TRPV1 PAM – potentiators of human vanilloid receptor 1 (TRPV1). Q8NER1. TRPV1-expressing cells, Fluo-8 calcium influx, capsaicin EC20 potentiation; host cell line not named in the record; control for the full effect not named in the record. potentiation, % at 8.33 µM. actives 0.02% (n = 320,000). AID 540277; active means potentiation above 80%; inconclusive means 30% to 80%; inactive means below 30%; note: 0% is about no effect
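Fluo-8 calcium influx in TRPV1-expressing cells, kinetic read (ex 480/em 520 nm). Compound added and read 3 min for agonist activity, followed by capsaicin at EC20 final and 2 min further read for enhancement.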
ClpP mod – qHTS Assay for Activators of ClpP. purified B. subtilis ClpP, FRET peptide cleavage, 20 min. Potency, µM (highest dose often 57.5 µM), for inactives: at the top dose activity change, negative = active. actives 1.9% (n = 340,000). ATP-dependent Clp protease proteolytic subunit (Bacillus subtilis (strain 168)), P80244; active = well fitted falling curve with a large enough effect; inconclusive = small, poorly fitted or top-dose-only effect; inactive = no such curve, though single readings can be large or run the other way; note: potency is the fitted concentration of half-maximal effect; the source files actives as falling curves though it sought activators and does not explain the sign; nearly all actives have a fitted effect of over 65% in size; many hits overshoot -100%
Target sequence (P80244 whole entry, looked up): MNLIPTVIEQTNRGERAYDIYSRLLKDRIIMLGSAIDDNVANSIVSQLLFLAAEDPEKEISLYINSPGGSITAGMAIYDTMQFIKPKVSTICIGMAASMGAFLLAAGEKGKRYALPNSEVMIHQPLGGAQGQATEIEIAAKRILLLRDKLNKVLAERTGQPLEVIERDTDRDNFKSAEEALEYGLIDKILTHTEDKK
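ClpP 10 microg/mL final, pH 8 Tris/KCl buffer with BSA, glycerol, Tween-20; compound pinned in; FRET-FV substrate; RT 20 min; Ex320/Em430; ΔFRET vs ADEP 5.8 microM, DMSO, no enzyme.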
gsp agonist – agonists of gsp mutant (McCune-Albright syndrome). gsp mutant cells, cAMP HTRF, 30 min; control for the full effect not named in the record. Potency, µM (highest dose often 76.9 µM), for the others: at the highest dose activation (cAMP increase), most hits filed as activators. actives 0.13% (n = 340,000). AID 624287; active = well fitted activation curve with a large enough effect; inconclusive = small, poorly fitted or top-dose-only effect, or another doubt; inactive = no such curve, though single readings can be large or run the other way; cell line not stated here;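 note: phosphodiesterase inhibitor Ro 20-1724 added with compounds to block cAMP breakdown; potency is the fitted concentration of half-maximal effect; nearly all actives have a fitted effect of over 60% in size; about a fifth of the inactives were tested at one dose only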
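Cells stably selected in G418 were plated at 2000/well, grown 16-24 hr, then given compounds in DMSO with the PDE inhibitor […] (300 uM solution added) for 30 min at 37C; cAMP was read by HTRF.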
gsp antagonist – antagonists of gsp mutant (McCune-Albright syndrome); Potency, µM (doses to about 76.9 µM), without a hit: at the top dose activity change, negative = inhibition, hits mostly inhibitors; actives 0.4% (n = 340,000); gsp-mutant cells, cAMP HTRF, 30 min; control for the full effect not named in the record; AID 624288; active = falling curve of any shape with a large fitted effect; inconclusive = falling curve, mostly with a smaller effect; inactive = flat or rising curve; cell line not stated here;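 note: intracellular cAMP measured with PDE inhibitor Ro 20-1724 present during compound exposure; potency is the fitted concentration of half-maximal effect; % is set by controls: 0 for no effect and ±100 for the full control effect; nearly all actives have a fitted effect of over 65% in size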
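Cells, 2000/well, grown 16–24 h in DMEM 10% FBS with 0.5 mg/ml G418, then compounds plus […] (300 uM addition stock), 30 min at 37C. cAMP read by HTRF (cAMP-d2 and anti-cAMP antibody-K in lysis buffer) after 30 min RT.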
Sfp PPTase inh – blocks B. subtilis Sfp PPTase activity; Biochemical Sfp PPTase activity, qHTS; Potency, µM, inactives show max response, negative = inhibition, actives largely listed as inhibitors; actives 3.5% (n = 310,000); active = well fitted inhibition curve with a large enough effect; inconclusive = small, poorly fitted or top-dose-only effect, or another doubt; inactive = no such curve, though single readings can be large or run the other way;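 note: the enzyme is Sfp with the accession as filed and its product quenches rhodamine fluorescence; potency is the fitted concentration of half-maximal effect; 0% = enzyme reaction without inhibitor and -100% = no enzyme wells; top concentration of the series not given in the record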
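Reaction rates are the 30-min fluorescence difference (ex 525, em 598 nm) in wells containing 15 nM Sfp, 5 uM rhodamine-CoA and 12.5 uM BHQ-2-YbbR at pH 7.6 with 10 mM MgCl2.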
D2 PAM – potentiates the human D2 dopamine receptor allosterically | AID 624464 | actives 0.23% (n = 360,000) | DiscoveRx D2 beta-arrestin cells, luminescence, 90 min; 100% = 57 uM dopamine signal | potentiation, % (test concentration not listed) | P14416; active = potentiation of 50% or more; inconclusive = 30% to 50%; inactive = 30% or less;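 note: compound concentration not given in the record; tested on top of an EC20 dose of dopamine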
Target sequence (P14416 whole entry, looked up): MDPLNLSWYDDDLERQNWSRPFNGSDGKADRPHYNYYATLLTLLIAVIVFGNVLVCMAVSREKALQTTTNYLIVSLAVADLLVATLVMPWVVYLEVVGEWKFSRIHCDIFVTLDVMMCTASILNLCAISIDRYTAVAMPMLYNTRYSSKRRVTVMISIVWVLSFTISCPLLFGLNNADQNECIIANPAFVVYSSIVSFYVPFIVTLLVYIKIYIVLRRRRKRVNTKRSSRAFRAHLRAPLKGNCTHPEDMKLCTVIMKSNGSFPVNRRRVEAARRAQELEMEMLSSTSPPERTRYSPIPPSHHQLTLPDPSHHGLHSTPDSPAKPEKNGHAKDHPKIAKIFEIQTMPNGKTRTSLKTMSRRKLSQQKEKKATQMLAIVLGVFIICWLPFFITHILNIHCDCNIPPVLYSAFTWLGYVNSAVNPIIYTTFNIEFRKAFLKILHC
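PathHunter beta-arrestin assay in DiscoveRx D2 cells. Compounds were added with an EC20 of dopamine (50 nM final) for 90 min at 37 deg C. Luminescence was read 1 h after detection reagent, with 57 uM dopamine as the EC100 control.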
* marks the source's active call; other numbers are inactive results; ? = inconclusive; · = no result given; [ ] = remark or other dose.

mol	Menin-MLL FL inh	TRPV1 PAM	ClpP mod	gsp agonist	gsp antagonist	Sfp PPTase inh	D2 PAM
O=C(Nc1ncccn1)c1cc([N+](=O)[O-])cc([N+](=O)[O-])c1	-1.8	-7	-3.0%	?	19%	15%	54*
CCOc1ccccc1CN1CCN(S(C)(=O)=O)CC1	4.3	?	0.3%	-9%	-4%	-18%	-17
Cc1ccc(S(=O)(=O)N/N=C\c2cn(-c3ccccc3)nc2-c2ccccc2)cc1	1.5	-1	-8.1%	-3%	-6%	-14%	-23
COc1ccc(OC)c(C2=NOC(C(=O)NCc3ccco3)C2)c1 (stereo not given)	3.7	8	-18%	-56%[inhibitor]	0%	-8%	9
Nc1nc(OCC(F)(F)F)cc(Oc2ccccc2F)n1	6.1	-5	-1.2%	-15%	-10%	12%	-2
CCCn1c(=S)[nH]c2cc(C(=O)N3CCc4ccccc4C3)ccc2c1=O	3.0	-1	·	11%[15.4 µM]	-9%	-26%	-10
O=C(Nc1ccc(-c2nc3ccccc3[nH]2)cc1)c1ccccc1NS(=O)(=O)c1ccc(F)cc1	2.4	5	35µM*	-14%	?	9%	5
CC(C)(C)c1ccc(-c2noc(CCC(=O)NCC3CCCO3)n2)cc1 (stereo not given)	0.4	-2	-0.5%	-39%[inhibitor]	-20%	7%	-4
COc1ccc(OC)c2c1sc(=NC(=O)C1CCCCC1)n2C	2.7	-2	·	-7%[15.4 µM]	1%	7%	-1
O=C(OCc1ccc(Cl)c(Cl)c1)c1cnccn1	3.4	24	1.8%	3%	4%	12%	-2
CCOC(=O)[C@@H]1[C@H]2COc3ccccc3[C@H]2N2C(=O)N(c3cccc(F)c3)C(=O)[C@]12C	-1.5	-6	1.1%	13%	-5%	8%	-10
O=C(O)CCN1C(=O)/C(=C\c2ccncc2)SC1=S	2.2	0	1.3%	-37%[inhibitor]	8%	?	-2
Nc1c(C(=O)Nc2ccccc2)sc2ncc([N+](=O)[O-])cc12	-1.0	·	·	8%[15.4 µM]	-3%	19%	1
COc1ccc(S(=O)(=O)NCc2ccco2)cc1-c1nnc2c3ccccc3c(C)nn12	0.3	-3	-8.2%	?	11%	-1%	-14
COc1cc(OC)c(NC2=CC(=O)C(=O)c3ccccc32)cc1Cl	-6.3	5	2.8%	33%	-16%	-6%	11
CC1(C)CC(=O)C2=C(C1)N1C(=C(C#N)C2c2ccc(Cl)cc2)N=C(N)c2ccccc21 (stereo not given)	2.3	-4	-0.7%	-1%	35µM*	5%	-7
O=C(Cn1nnc2ccccc21)N/N=C\c1cccs1	-1.9	-12	1.1%	-46%[inhibitor]	8%	13%	3
COc1ccc(S(=O)(=O)Nc2ccc3c(c2)OCCO3)cc1Cl	0.7	26	-0.4%	0%	?	1%	8
COc1cc2[nH]c(=S)n(NC(=O)c3ccccc3)c(=O)c2cc1OC	6.5	9	-4.1%	26%	24%	-27%	-14
Cc1ccc(NC(=O)N(C2=NCC(C)S2)c2ccccc2)cc1 (stereo not given)	·	·	-0.7%	5%	6%	·	-8
Cc1cc(C)n2nc(S(=O)(=O)NCCc3ccccc3)nc2n1	-0.3	-1	-4.0%	-5%	-8%	12%	-4
N#CC(C(=O)c1ccccc1Cl)=C1SCCCS1	-4.1	-2	-0.5%	8%[15.4 µM]	-4%	-1%	-17
Cc1cccc(/C=N/NC(=O)NC2CCCCC2)c1	-1.8	-12	?	-8%[15.4 µM]	12%	-13%	-7
Cc1ccc(Nc2nnc(SCC(=O)N(C)C3CCS(=O)(=O)C3)s2)cc1 (stereo not given)	1.4	-3	·	-2%[15.4 µM]	-13%	14%	-6
CCc1c(C#N)c(N)nc(SCC(=O)OCc2ccccc2)c1C#N	-2.0	-2	-30%	8%	?	-3%	7
CCOc1ccc(C(=O)CCC(=O)NC2=NCCS2)cc1	·	1	·	-6%[15.4 µM]	-2%	·	-14
Cc1ccc(NS(C)(=O)=O)c(C(=O)c2ccccc2)c1	-1.2	?	4.1%	-4%	2%	-1%	2
Cc1ccc(NC(=O)C2CC(=O)Nc3nncn32)cc1 (stereo not given)	6.2	-10	-0.9%	-11%	9%	7%	-7
CC(C)NC(=O)N(C)C[C@H]1Oc2ccc(NC(=O)C3CC3)cc2C(=O)N([C@H](C)CO)C[C@@H]1C	·	·	2.0%	-19%	5%	·	-4
O=C(NCc1cccnc1)NC1CC(=O)N(c2ccc3c(c2)OCCO3)C1 (stereo not given)	-4.1	3	·	8%	3%	10%	-7
Oc1ccccc1/C=N/NC(=S)NC1CC2CCC1C2 (stereo not given)	1.4	-3	-1.2%	1%[15.4 µM]	-20%	25%	-8
O=S(=O)(/N=C/c1ccccc1O)c1cccs1	-2.5	-5	-0.3%	-7%	7%	13%	8
CCc1ccc(NC(=O)Nc2ccncc2)cc1	-4.3	7	·	-35%[inhibitor]	13%	13%	-3
COc1ccc(NC(=O)C2CCCN(c3c4c(nc5ncnn35)CCC4)C2)cc1OC (stereo not given)	2.4	3	1.0%	32%	3%	13%	-9
CCN1CCN(C(=S)Nc2ccc(C(C)=O)cc2)CC1	-2.1	15	0.9%	7%	-4%	1%	-6
CCCCC(=O)NC(NC(=S)N1CCOCC1)C(Cl)(Cl)Cl (stereo not given)	1.1	3	-2.4%	-31%[inhibitor]	2%	8%	-9
CCn1nnnc1SCC(=O)N1c2ccccc2Sc2ccccc21	3.2	-9	-3.1%	?	-6%	-5%	0
COc1ccc(C(=O)COC(=O)C2CC3CCCC(C2)C3=O)cc1Br (stereo not given)	·	-10	-1.8%	-46%[inhibitor]	-26%	·	-5
COC(=O)CSc1nnc([C@H](Cc2ccccc2)NC(=O)OC(C)(C)C)o1	3.4	9	3.5%	3%	-7%[15.4 µM]	1%	-11
COCCn1c(=O)[nH]c2cc(C(=O)Nc3nnc(C)s3)ccc21	-2.4	22	·	-5%[15.4 µM]	-7%	-9%	7
CCCC(C(=O)NC(C)(C)CC)N(CC1CCCO1)C(=O)CNS(=O)(=O)c1ccc(F)cc1 (stereo not given)	·	-8	·	1%[15.4 µM]	-1%	13%	-3
Cc1cc(N/N=C/c2ccc(Cl)cc2Cl)nc(NCc2ccccc2)n1	-3.1	?	-8.6%	19%	2%	?	5
CCCn1nnnc1NC(=O)c1cc(Br)ccc1OC	0.2	-3	0.1%	-30%	-5%	6%	-1
Cc1ccccc1NC(=O)CSc1nc(Nc2ccccc2)nc(N2CCOCC2)n1	-0.7	9	?	-26%	-12%	22%	6
COc1cccc(N(C(=O)c2snc(C(N)=O)c2N)C(C(=O)NCc2ccccc2)c2ccc(O)cc2)c1 (stereo not given)	-3.5	3	·	1%	?	7%	1
O=C(NCc1ccccc1)N1CCC(Cc2ccccc2)CC1	-1.7	-9	-0.4%	-1%[15.4 µM]	2%	14%	-4
COCCNC(=O)/C(C#N)=C1\N=C(NC(=O)c2ccco2)c2ccccc21	·	·	3.6%	3%	·	·	0
COc1ccccc1CN=C1NC(=O)C(CC(=O)Nc2ccc(C(C)=O)cc2)S1 (stereo not given)	4.6	-2	·	14%[15.4 µM]	-2%	7%	-5
O=C(CNc1cccc(S(=O)(=O)N2CCCC2)c1)Nc1cccc(F)c1	·	3	-8.1%	-2%[15.4 µM]	-13%	·	-10
CC(C)NC(=O)c1nn2c(C(F)(F)F)cc(-c3ccco3)nc2c1Cl	-8.9	6	·	-5%	-2%	13%	-2
Cc1ccc(CNC(=O)C(N=C2NS(=O)(=O)c3ccccc32)C(C)C)cc1 (stereo not given)	·	-8	0.0%	12%	3%	·	3
CCSc1nsc(NC(=O)Nc2ccc(F)cc2F)n1	-3.8	26	2.0%	16%	-25%	2%	-31
Cc1ccc(C)c(N(CC(=O)NC2CCCC2)C(=O)c2csnn2)c1	-1.3	-3	·	17%[15.4 µM]	7%	-4%	-5
CSCCC(NC(=O)c1ccco1)C(=O)N1CCCCCCC1 (stereo not given)	·	-5	-4.6%	5%[15.4 µM]	10%	·	2
CC(=O)N1CCN(c2ccc(NC(=O)c3cc4ccccc4o3)cc2)CC1	-1.3	-30	1.3%	-30%	-14%	13%	2
O=C(CSc1nnc2ccccn12)Nc1ccc(S(=O)(=O)N2CCOCC2)cc1	0.5	1	-11%	7%[15.4 µM]	9%	4%	-24

Next part.
mol	Menin-MLL FL inh	TRPV1 PAM	ClpP mod	gsp agonist	gsp antagonist	Sfp PPTase inh	D2 PAM
O=c1c2ccccc2ncn1-c1cccc([N+](=O)[O-])c1	·	·	-0.2%	7%	4%	·	0
COCCN1CCN(C(=O)c2ccc3nc(Cc4ccc(OC)c(OC)c4)oc3c2)CC1	·	19	-23%	-4%[15.4 µM]	3%	23%	-3
COc1ccc(C)cc1Nc1n[n+](-c2ccccc2)c(-c2cc(OC)c(OC)cc2Br)s1	-3.5	4	3.4%	-14%	-20%	-28%	-30
O=C(NCC1CCCO1)c1ccc(S(=O)(=O)Nc2ccccc2F)cc1 (stereo not given)	·	-2	·	39%[15.4 µM]	3%	·	-7
O=C(Oc1ccc[nH]c1=O)c1cccc(Cl)c1	6.5	-11	0.4%	?	1%	6%	-17
Cc1cc(C)c(NC(=O)C2CCCN(S(=O)(=O)c3c(C)noc3/C=C/N(C)C)C2)c(C)c1 (stereo not given)	·	17	1.0%	?	-27%	14%	-3
CCOC(=O)C1=C(C)N=c2s/c(=C\c3ccc(O)c([N+](=O)[O-])c3)c(=O)n2C1c1ccccc1OC (stereo not given)	20	-5	·	1%	-23%	-12%	-4
Cc1ccc(C)c(OCCCC(=O)N2CCOCC2)c1	-2.0	-12	-0.9%	21%	8%	-9%	-1
Cc1cc2nnc(SC(C)C)n2c2ccccc12	1.4	-16	28µM*	5%	7%	22%	1
COC(=O)c1ccc(-n2c(C)cc(C(=O)COC(=O)C3=COCCO3)c2C)cc1	·	·	·	-6%	-15%	·	-1

Source: PubChem BioAssay (National Center for Advancing Translational Sciences (NCATS))
